# From PubChem BioAssay
# rRNA inh HTS – inhibits bacterial ribosomal RNA function over humanized ribosomes. AID 720706. GFP signal change (wild-type ribosome), % (no concentration beside the values). 350,000 tested, 1.6% active. E. coli WT GFP vs humanized-ribosome RFP mutants, fluorescence, 24 h; active compounds read low; DMSO median 0, no signal -100;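 active = significant combined selectivity score with lowered wild-type GFP, culture density cut under 30%, mutant RFP and density less affected; inactive = any of these conditions unmet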; also: one replicate is shown; some compounds called inactive have numbers as strong as hits
# Beta cell apopt – beta cell apoptosis inhibition | protection from apoptosis, % (no concentration beside the values) | 300,000 tested, 0.8% active | INS-1E cytokine-induced death, ATP luminescence, 48 h; percent of positive-control rescue, neutral wells zero;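 active = all replicates at 75% or more, or half of them and the mean; inconclusive = half reach 75% but not the mean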;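 also: 0% = cytokine-treated negative control wells and 100% = positive control rescue; higher means more ATP so stronger rescue from cytokine killing; wells of about 40 µL received 100 nL stock; the first replicate is given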
# B2AR ag – human beta-2 adrenergic receptor agonism by FAP; P07550; Am2.2-beta2AR cells, FAP receptor internalization, flow cytometry; reference of the scale not given here; response, % (test concentration not listed); 340,000 tested, 0.43% active;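 active = response above a set limit, near 3 SD of response in nonfluorescent compounds, cut at about 42% in these data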;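 also: stock transfer was 100 nL into about 11 µL; a reference agonist was the positive control; negative values mostly stem from fluorescent compounds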
# Target sequence (P07550 whole entry, looked up): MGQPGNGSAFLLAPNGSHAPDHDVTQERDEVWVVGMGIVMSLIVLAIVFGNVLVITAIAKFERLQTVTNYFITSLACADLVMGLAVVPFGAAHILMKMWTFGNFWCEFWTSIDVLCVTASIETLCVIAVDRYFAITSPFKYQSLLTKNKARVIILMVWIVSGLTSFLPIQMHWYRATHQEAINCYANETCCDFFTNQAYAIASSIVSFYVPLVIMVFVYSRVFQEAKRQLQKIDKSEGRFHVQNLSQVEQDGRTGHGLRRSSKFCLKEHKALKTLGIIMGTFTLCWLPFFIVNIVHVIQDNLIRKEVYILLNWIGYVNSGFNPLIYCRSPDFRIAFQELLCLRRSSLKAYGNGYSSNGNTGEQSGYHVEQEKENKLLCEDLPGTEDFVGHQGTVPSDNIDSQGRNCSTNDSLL
# LANA-H2A inh – blocks KSHV LANA binding to histone H2A/H2B | Q9QR71 | cell-free LANA-H2A/H2B peptide, fluorescence polarization | inhibition, % (test concentration not listed) | 320,000 tested, 0.6% active | AID 2629; in the data active = inhibition mostly above about 10%, no sharp cut-off; inactive = mostly below about 6.7%;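 also: stock transfer was 7.5 nL into about 10 µL; 0% = median of vehicle wells and 100% = median of positive control wells; one replicate is shown; the record names a cut of 25% in any replicate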
# A1 inh – inhibitors of the anti-apoptotic protein A1, read as caspase activation. caspase activation, % (test concentration not listed). MEF A1-2A-BIM cells, Caspase-Glo 3/7 luminescence, 3 h; percent of clofoctol response, vehicle zero. 330,000 tested, 0.066% active;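 active = over half of replicate activation scores above 10%, or exactly half above 10 with the replicate mean above 10; inconclusive = replicate mean below 10 yet half the replicates above 10; inactive = over half of replicates below 10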;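 also: wells of about 30 µL received 50 nL stock; many hits fall short of the cut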
# Calb FLC – affects C. albicans growth with fluconazole; C. albicans CaCi-2 (fluconazole-resistant clinical isolate) + fluconazole, Alamar Blue growth, 48 h; growth inhibition, % (concentration not given with the values); 300,000 tested, 0.57% active;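 active = most replicates above 75%; inconclusive = exactly half above 75%; inactive = most below 75%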;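 also: all wells also contain fluconazole at 8 µg/ml as a sub-toxic cotreatment; 0% = median of DMSO wells and 100% = median of geldanamycin control wells; wells of about 8 µL received 7.5 nL stock; the first replicate is given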
# T cruzi repl – T. cruzi replication inhibition; T. cruzi beta-gal in NIH3T3, luminescence, 90 h; inhibition, % (no concentration beside the values); 300,000 tested, 1.4% active;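 active = mean inhibition across valid replicates above about 55%, limit read from the data; inconclusive = mean below that limit but half or more replicates reach it; inactive = mean below it, under half of replicates reach it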;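 also: signal also drops with host cell toxicity which is not excluded here; 0% = plate median of DMSO wells and 100% = zero luminescence signal; higher percent means less beta-gal luminescence so fewer parasites; stock transfer was 50 nL into about 50 µL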
# ALR inh – inhibitors of human sulfhydryl oxidase ALR. purified ALR, DTT oxidation, H2O2 HRP-luminol luminescence. inhibition, % (test concentration not listed). 290,000 tested, 3.8% active. AID 485317;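 active = mean and each replicate at 75% or more; inconclusive = only one of the two met; inactive = neither met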;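 also: stock transfer was 7.5 nL into about 7.5 µL; 0% = neutral wells and 100% = wells with inactivated enzyme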
# Target sequence (P55789 whole entry, looked up): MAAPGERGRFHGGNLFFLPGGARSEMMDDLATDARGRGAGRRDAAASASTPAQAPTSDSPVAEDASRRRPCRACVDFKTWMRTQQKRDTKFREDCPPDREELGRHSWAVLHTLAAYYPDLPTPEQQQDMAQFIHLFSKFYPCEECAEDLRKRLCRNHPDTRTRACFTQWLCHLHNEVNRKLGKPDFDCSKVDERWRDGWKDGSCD
# rRNA inh HTS OD600 – second read-out of rRNA inh HTS, no call of its own (marks repeat the call); OD600 change, %; measured here: OD600 growth;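 optical density of the mix in the first replicate; 0 = DMSO median and -100 = no signal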
# rRNA inh HTS RFP – also measured in rRNA inh HTS; calls as there; RFP signal change, %; measured here: RFP humanized mutant strains;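 first replicate; 0 = DMSO median and -100 = no signal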
# Active calls of the source: *; ? = inconclusive; . = not tested or not shown. This is a subset; rates above refer to the full screens.
1: COc1cc2c(cc1OC)CN(C(=O)CN1CCN(S(=O)(=O)c3ccccc3Br)CC1)CC2
2: Cc1cc(NC(=O)CCc2ccccc2)c([N+](=O)[O-])cc1C
3: COc1ccccc1C(=O)N/C(=N/c1nc(C)cc(C)n1)Nc1ccccc1
4: COc1ccc(S(=O)(=O)N(C)c2ccc(C(=O)NCc3ccco3)cc2)cc1
5: Fc1ccc(/C=N/N2CCCCC2)c(F)c1
6: Cc1ccnc(OC(C(=O)O)C(OCCc2ccccc2)(c2ccccc2)c2ccccc2)n1 (stereo not drawn)
7: Cc1cc(N2CCN(C(=O)c3ccco3)CC2)n2ncc(-c3ccccc3)c2n1
8: Cc1cccc(NC(=O)c2ccc(N3C(=O)C4C5C=CC(C6CC56)C4C3=O)cc2)c1 (stereo not drawn)
Screen / compound no.	1	2	3	4	5	6	7	8
rRNA inh HTS	-12	.	-7	-2	17	-1	.	-3
rRNA inh HTS OD600	-9	.	-7	3	16	0	.	11
rRNA inh HTS RFP	-0.4	.	-0.5	2.2	2.2	-3.0	.	-2.2
Beta cell apopt	-4	-13	5	1	2	3	-4	.
B2AR ag	-2	0	-9	2	-5	0	-6	11
LANA-H2A inh	2.3	1.0	-4.0	1.0	1.9	8.4	1.3	-1.6
A1 inh	0.6	0.5	0.3	1.3	0.3	1.9	1.8	0.2
Calb FLC	-1	1	1	6	-8	29	8	1
T cruzi repl	10	2	16	11	3	-9	15	15
ALR inh	-4	-6	.	-6	.	24	-9	1

9: CCOC(=O)CN1C(=O)N[C@@H](c2cccc(F)c2)C(C(=O)OC)=C1C
10: CC(C)c1ccccc1NCC(=O)N1CCN(Cc2ccccc2)CC1
11: Cc1ccc(NC(=O)Cn2cccc2)cc1Cl
12: CN(CC(=O)Nc1ccccc1Br)C(=O)C1CCN(C(=O)c2ccc(Cl)cc2)CC1
13: CC(C)NC(=O)c1c(O)c2cccc3c2n(c1=O)CCC3
14: COc1ccccc1CNC(=O)C1(C)Oc2cccnc2NC1=O (stereo not drawn)
15: N#Cc1cccc(NC(=O)Nc2cccs2)c1
16: O=C(CCCOc1ccccc1)Nc1cccnc1
Screen / compound no.	9	10	11	12	13	14	15	16
rRNA inh HTS	-27	-14	-1	5	4	10	.	.
rRNA inh HTS OD600	-28	-16	-1	5	5	-11	.	.
rRNA inh HTS RFP	7.3	3.7	1.7	2.6	-0.6	-0.7	.	.
Beta cell apopt	-1	-2	-5	6	.	-3	-4	-3
B2AR ag	1	-4	19	-1	3	0	-3	1
LANA-H2A inh	0.0	-4.5	-8.4	1.7	-1.5	0.2	-12	1.4
A1 inh	1.0	0.2	-0.4	1.1	-0.1	1.4	-0.6	0.3
Calb FLC	9	-2	6	-17	7	-16	1	1
T cruzi repl	-11	18	.	0	-2	-16	3	-23
ALR inh	-7	-13	-3	.	5	-1	32	-11

17: Cc1ccc(C)c(NS(=O)(=O)c2cc(C(N)=O)ccc2C)c1
18: COc1cc2c(cc1OC)/C(=C/C#N)NC(C)(C)C2
19: COc1ccc(CNC(=O)C(=O)NCCC2CCCCN2S(=O)(=O)c2ccccc2)cc1 (stereo not drawn)
20: O=C(CCn1c(=S)oc2ccccc21)NC1CCCCC1
21: Cc1sc2nc(CSCC(=O)N(CCC#N)c3ccccc3)[nH]c(=O)c2c1C
22: CN1/C(=C/C=N/NC(=O)c2ccc([N+](=O)[O-])cc2)C(C)(C)c2ccccc21
23: O=C(/C=C/c1ccc(O)c(O)c1)OCCc1ccccc1
24: S=C(NC1CCCC1)N1CCN(c2cccc(Cl)c2)CC1
Screen / compound no.	17	18	19	20	21	22	23	24
rRNA inh HTS	.	.	-15	5	-4	4	.	10
rRNA inh HTS OD600	.	.	-17	3	0	10	.	12
rRNA inh HTS RFP	.	.	2.8	5.5	9.4	0.3	.	0.8
Beta cell apopt	-5	9	1	4	4	3	-2	-6
B2AR ag	0	10	1	-11	2	0	10	-4
LANA-H2A inh	4.9	4.2	.	-1.6	-1.2	-6.4	5.2	3.2
A1 inh	-0.3	-0.1	0.5	0.3	-1.0	-0.2	0.0	-0.2
Calb FLC	-8	-4	6	-1	28	28	.	16
T cruzi repl	-20	23	8	5	-3	10	14	6
ALR inh	1	37	.	-2	-15	65	98*	-2

25: CC(=O)C1=C(C)N(c2ccccc2)C(=O)C1(NS(=O)(=O)c1ccc(N)cc1)C(F)(F)F (stereo not drawn)
26: OC(CNc1nc(C(F)(F)F)nc2ccccc12)c1ccccc1 (stereo not drawn)
27: O=C(NC1CC1)C1=C[C@@H](c2csc3ccccc23)C[C@@H](OCc2ccc(CO)cc2)O1
28: CC(=O)Nc1ccc(O)cc1[N+](=O)[O-]
29: CC(C)CC[C@@H](O)[C@](C)(O)C1CC[C@@]2(O)C3=CC(=O)[C@@H]4C[C@@H](O)[C@@H](O)C[C@]4(C)C3CC[C@]12C (stereo partly drawn)
30: COc1ccc(OC)c(S(=O)(=O)N2CCCC(C(=O)NCCc3ccccc3)C2)c1 (stereo not drawn)
31: COC(=O)C1=C(C)N(C)C(=O)NC1c1cc(Cl)c(O)c(OC)c1 (stereo not drawn)
32: COc1ccc(C(=O)N/N=C(\c2ccccc2)c2ccccn2)cc1
Screen / compound no.	25	26	27	28	29	30	31	32
rRNA inh HTS	11	-49	-34	1	7	-8	12	.
rRNA inh HTS OD600	6	-69	-50	20	17	-16	-5	.
rRNA inh HTS RFP	-0.1	-8.7	4.4	3.5	2.7	1.9	7.8	.
Beta cell apopt	-1	.	2	0	-4	1	.	113*
B2AR ag	0	5	-15	8	-2	-23	-7	-11
LANA-H2A inh	1.2	4.3	-1.2	4.7	6.5	0.2	1.6	-8.0
A1 inh	1.3	-3.1	-1.6	0.6	0.2	-0.7	0.5	0.2
Calb FLC	-41	2	4	-5	.	-4	5	17
T cruzi repl	-8	-7	4	-10	.	8	2	?
ALR inh	1	-13	16	-1	-12	-32	18	23

# From entry 24 to 32, copied from above:
24: S=C(NC1CCCC1)N1CCN(c2cccc(Cl)c2)CC1
25: CC(=O)C1=C(C)N(c2ccccc2)C(=O)C1(NS(=O)(=O)c1ccc(N)cc1)C(F)(F)F (stereo not drawn)
26: OC(CNc1nc(C(F)(F)F)nc2ccccc12)c1ccccc1 (stereo not drawn)
27: O=C(NC1CC1)C1=C[C@@H](c2csc3ccccc23)C[C@@H](OCc2ccc(CO)cc2)O1
28: CC(=O)Nc1ccc(O)cc1[N+](=O)[O-]
29: CC(C)CC[C@@H](O)[C@](C)(O)C1CC[C@@]2(O)C3=CC(=O)[C@@H]4C[C@@H](O)[C@@H](O)C[C@]4(C)C3CC[C@]12C (stereo partly drawn)
30: COc1ccc(OC)c(S(=O)(=O)N2CCCC(C(=O)NCCc3ccccc3)C2)c1 (stereo not drawn)
31: COC(=O)C1=C(C)N(C)C(=O)NC1c1cc(Cl)c(O)c(OC)c1 (stereo not drawn)
32: COc1ccc(C(=O)N/N=C(\c2ccccc2)c2ccccn2)cc1
Screen / compound no.	24	25	26	27	28	29	30	31	32
rRNA inh HTS	10	11	-49	-34	1	7	-8	12	.
rRNA inh HTS OD600	12	6	-69	-50	20	17	-16	-5	.
rRNA inh HTS RFP	0.8	-0.1	-8.7	4.4	3.5	2.7	1.9	7.8	.
Beta cell apopt	-6	-1	.	2	0	-4	1	.	113*
B2AR ag	-4	0	5	-15	8	-2	-23	-7	-11
LANA-H2A inh	3.2	1.2	4.3	-1.2	4.7	6.5	0.2	1.6	-8.0
A1 inh	-0.2	1.3	-3.1	-1.6	0.6	0.2	-0.7	0.5	0.2
Calb FLC	16	-41	2	4	-5	.	-4	5	17
T cruzi repl	6	-8	-7	4	-10	.	8	2	?
ALR inh	-2	1	-13	16	-1	-12	-32	18	23

# Other structures.
33: Cc1cc2nc(CN(C)Cc3c(C(=O)N(C)C)nc4ccc(Cl)cn34)[nH]c2cc1C
34: CCN1CCN(c2oc(COc3ccc(-c4ccccc4)cc3)nc2C#N)CC1
35: CCOC(=O)C(Cc1c[nH]c2ccccc12)NC(=O)c1ccco1 (stereo not drawn)
36: O=C(Nc1ccccn1)c1cccc(S(=O)(=O)N2CCOCC2)c1
37: O=C(c1ccco1)N1N=C(c2ccc(Cl)cc2)CC1c1ccco1 (stereo not drawn)
38: Cc1ccccc1OCC(=O)Nc1ccc(S(=O)(=O)Nc2onc(C)c2C)cc1
39: O=C(c1cccnc1)c1cccnc1
40: CN(CCN1CCOCC1)Cc1nc(-c2cccs2)no1
Screen / compound no.	33	34	35	36	37	38	39	40
rRNA inh HTS	-7	.	.	.	-17	-7	-3	58
rRNA inh HTS OD600	-14	.	.	.	-23	-27	-11	10
rRNA inh HTS RFP	-0.6	.	.	.	6.9	-6.3	-7.4	0.2
Beta cell apopt	.	1	-4	-5	9	2	5	-5
B2AR ag	-1	3	18	4	-24	0	-10	1
LANA-H2A inh	-5.5	-2.0	-2.9	5.5	-1.7	-0.4	.	7.4
A1 inh	-1.0	0.1	0.0	-0.8	-1.3	1.0	-0.7	-0.2
Calb FLC	27	-7	?	3	2	6	-1	0
T cruzi repl	12	61*	-5	-7	28	7	-3	-2
ALR inh	-3	1	1	-6	-7	.	.	-3

41: COc1ccc([N+](=O)[O-])cc1N(CC(=O)N1CCCCC1)S(C)(=O)=O
42: CCOC(=O)c1ccc(S(=O)(=O)N2CCC(C(=O)NCC3CCCCC3)CC2)cc1
43: CCCc1cc(=O)oc2cc(OCC(=O)Nc3ccc4c(c3)OCCO4)ccc12
44: COc1ccc(C2C(C#N)=C(N)N(N(C)C)C3=C2C(=O)CCC3)cc1 (stereo not drawn)
45: CCCCC(CC)C(=O)Nc1ccc(Cl)cn1 (stereo not drawn)
46: CC(C)(C)C(=O)COC(=O)c1cc(-c2ccncc2)nc2ccccc12
47: CCOC(=O)c1oc2c(O)c(O)ccc2c(=O)c1-c1nncn1-c1ccccc1
48: CC(=O)c1ccc(S(=O)(=O)NCc2cccnc2)cc1
49: Cc1ccnc(NC(=O)Cn2c(=O)oc3cc(S(=O)(=O)N4CCCC4)ccc32)c1
Screen / compound no.	41	42	43	44	45	46	47	48	49
rRNA inh HTS	20	3	.	7	.	-52	.	0	6
rRNA inh HTS OD600	6	10	.	11	.	-78	.	5	8
rRNA inh HTS RFP	-0.7	-2.9	.	-0.4	.	-19	.	-0.9	0.7
Beta cell apopt	.	-4	-5	-1	-1	2	4	-13	-23
B2AR ag	25	11	-2	-8	4	0	-1	4	7
LANA-H2A inh	-3.6	-3.6	-2.8	1.5	4.7	-4.3	0.2	1.6	3.2
A1 inh	0.1	0.9	-0.9	0.3	-0.3	0.8	0.6	-0.2	-0.1
Calb FLC	-1	.	5	-1	-6	29	1	0	-2
T cruzi repl	-12	.	-14	-5	11	1	0	-21	-5
ALR inh	8	1	-4	-97	0	-11	.	0	.
